Compound activity (PubChem)
NPYLR7 agonist: mosquito NPYLR7 agonism. activation, % at 10 µM. HEK293T NPYLR7/Galpha15, GCaMP6s calcium fluorescence. 270,000 tested, 0.15% active; in the data active = activation above about 40%;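 also: 0% = vehicle and 100% = reference agonist at the receptor; some compounds past the cut are filed as inactive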
NPYLR7 agonist max-min: also measured in NPYLR7 agonist; calls as there; activation, %; measured here: Max-Min RFU normalised activation; some inactives read as strong as hits;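 span of the calcium signal over five minutes; 0% = vehicle and 100% = native peptide agonist; compound fluorescence can raise it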
Active calls of the source: *.

SMILES | NPYLR7 agonist | NPYLR7 agonist max-min
O=C(NC1CCc2ccccc21)C1CC(CCc2ccccc2)=NO1 (configuration not stated) | -1.4 | -4.6
Cc1nc(C2CCCN(C)C2)cc(N2CCC(OCc3cccnc3)CC2)n1 (configuration not stated) | 6.2 | 2.0
O=c1cc(CSc2nc3ccccc3c3nc4ccccc4n23)nc2ccc(Cl)cn12 | 4.8 | 1.6
COc1cccc(C2c3[nH]c4ccccc4c3CCN2C(=O)CC2CCCC2)c1OC (configuration not stated) | 3.0 | 1.3
CC=CCn1c(SCc2ccc(F)cc2)nc2c1c(=O)[nH]c(=O)n2C | 3.9 | 0.1
CCc1ccc(Nc2c(C(=O)N3CCOCC3)cnc3ccccc23)cc1 | -1.8 | -6.1
O=C(O)c1ccc(OC(F)F)c(OCC2CC2)c1 | -2.6 | -8.8
CC(C)(C)Nc1ccc(C(=O)O)cc1S(=O)(=O)NC(C)(C)C | 4.5 | 1.8
CCCCC1=NN2C(=N)/C(=C/c3ccc(Br)cc3)C(=O)N=C2S1 | 0.1 | -0.6
CC1CN(C2CC(C)(C)NC(C)(C)C2)CCC1=O (configuration not stated) | -1.8 | -6.9
CCC(C(=O)Nc1ccc(Cn2ccnc2)cc1)c1ccccc1 (configuration not stated) | 0.3 | -1.2
O=C(NN1CCOCC1)c1ccc(-c2ccccc2)cc1 | -6.8 | -10.8
O=C1/C(=C/c2ccc(Cl)cc2)C=C(c2ccccc2)N1c1ccc(F)cc1 | 2.7 | 13.3
COc1cccc2c(SCc3ccccn3)nccc12 | 1.4 | -1.3
O=C(CSc1ncn[nH]1)Nc1ccc(F)cc1[N+](=O)[O-] | 2.5 | 6.5
CCC(Sc1nnc(-c2ccco2)n1CC)C(=O)Nc1ccccc1 (configuration not stated) | -5.3 | -5.4
N#Cc1ccsc1NC(=O)C1COc2ccccc2C1 (configuration not stated) | -4.6 | -3.8
COc1cccc(-c2nc3ccccn3c2NC(=O)COCc2ccccc2)c1 | 26.6 | 23.1
C=C1CCc2occ(C)c2[C@H]2[C@H]1[C@@]13O[C@@]1(C[C@@H](C)[C@H]3OC(C)=O)[C@H]1O[C@@]21C | -7.9 | -12.9
COc1ccc(NC(=O)c2ccc(-n3nc(-c4cccc(Cl)c4)cc3N)cc2)cn1 | -2.6 | -8.4
COc1ccc(CCOC(=O)[C@@H]2CCCN2C(=O)C(C)(C)Oc2ccc(C(N)=O)cc2)cc1OC | 20.5 | 18.8
CC(C)c1cc(N2CCCCC2C)nc(SCc2cccc(C(=O)NCCN(C)C)c2)n1 (configuration not stated) | -5.5 | -2.0
Clc1nc(C(Cl)(Cl)Cl)nc2ccccc12 | -6.7 | -8.8
CC(C)c1cc(C2CCN(C(=O)CS(C)(=O)=O)CC2)[nH]n1 | 6.7 | 6.0
Cc1ccc(F)cc1C(=O)N1CCC(n2c(C)nc3cc(C(F)(F)F)ccc32)CC1 | 4.9 | 1.8
CCN(CC1CCCO1)C(=O)/C=C/c1ccc(C(=O)NC2CC2)cc1 (configuration not stated) | 4.8 | 0.1
Cc1cc(NC(=O)c2ccccc2Br)n(-c2ccccc2F)n1 | -0.7 | -3.1
CCc1cc2c(SCc3nc4sc5c(c4c(=O)[nH]3)CCC(C)C5)ncnc2s1 (configuration not stated) | 11.2 | 8.8
CN(Cc1ccc(F)cc1)CN1C(=O)NC(C)(c2ccc(Br)cc2)C1=O (configuration not stated) | 17.5 | 16.5
O=C(c1cccs1)N1CCN(c2nccc(-c3cccc(C(F)(F)F)c3)n2)CC1 | 2.9 | 6.6
CC1=NC2=C(C(=O)CC(c3ccccc3)C2)C(c2ccc(F)cc2)C1C(=O)OCc1ccccc1 (configuration not stated) | 8.9 | 8.2
CC(NC(=O)c1cccc(NCc2ccc(F)cc2)c1)c1ncn[nH]1 (configuration not stated) | -8.2 | -8.8
Cc1cc(N(C)CCc2ccc(F)cc2)nc(N)n1 | 6.1 | 5.0
CCOC(=O)C1=C(C)N=c2s/c(=C\c3ccc(-c4ccc(Br)cc4)o3)c(=O)n2C1c1ccccc1 (configuration not stated) | 9.4 | 15.9
COc1cc(C=C(C#N)C(=O)Nc2nccs2)cc(OC)c1 | 1.7 | 1.0
CN(Cc1ccoc1)c1ccc(-c2nccn2C)nn1 | 10.3 | 3.4
Cc1ccccc1C(=O)NNC(=O)c1cc2cc(Cl)ccc2oc1=O | -0.7 | -1.4
COC(C)c1noc(CN2CCCN(CC(=O)N(C)c3ccccc3)CC2)n1 (configuration not stated) | -0.7 | -1.1
O=C(NCc1ccc(N2CCCCC2)cc1)c1ccc(-n2cccn2)nc1 | -9.0 | -9.0
O=C(c1cc(S(=O)(=O)Nc2ccccc2SC(F)F)c[nH]1)N1CCCC1 | -6.8 | -8.0
COc1ccc(-n2nnc3c(N4CCN(C(=O)c5cccc(C(F)(F)F)c5)CC4)ncnc32)cc1 | -13.6 | -22.2
Cc1nc(N2CCN(C)CC2)ncc1C(=O)N[C@@H]1CC[C@@H](N)C1 | -2.6 | -7.2
Cc1cccc(C2c3cccn3CCCN2Cc2cccc(Cl)c2)c1 (configuration not stated) | 6.7 | 7.0
COc1ccc(S(=O)(=O)N(CC(=O)N(C)C)c2ccc(C)cc2)cc1OC | -3.2 | -5.1
Cc1cccc(CN2CCC(CNC(=O)NC(C)(C)C)CC2)c1 | 0.8 | -2.4
CCOC(=O)C1CCCN(C(=O)c2cccc(Nc3c(Oc4ccc(C)cc4)cnn(-c4ccc(F)cc4)c3=O)c2)C1 (configuration not stated) | 9.3 | 12.6
COc1cccc(C(=O)N2CCC(c3nc(-c4ccccc4Cl)no3)CC2)c1 | 4.5 | -0.5
CC1(C)C2CC[C@]3(C)C(C(=O)C=C4[C@@H]5C[C@@](C)(C(=O)O)CC[C@]5(C)CC[C@]43C)[C@@]2(C)CC[C@@H]1O (some centres not stated) | -11.3 | -11.7

Compound profiles, as listed above. Order of screens: NPYLR7 agonist	NPYLR7 agonist max-min
Results for Cc1cccc(C2c3cccn3CCCN2Cc2cccc(Cl)c2)c1 (configuration not stated) → 6.7	7.0
Results for O=C(O)c1ccc(OC(F)F)c(OCC2CC2)c1 → -2.6	-8.8

Further entries
SMILES | NPYLR7 agonist | NPYLR7 agonist max-min
COc1ccc(N2C(=O)C3C4C=CC(C4)C3C2=O)cc1Cl (configuration not stated) | -10.5 | -16.6
O=C(c1cc(Cl)ccc1[N+](=O)[O-])N(Cc1cccnc1)c1nc2c(F)cc(F)cc2s1 | -21.2 | -6.9
Cn1c(=O)c2c(nc(Br)n2Cc2nnc(N)s2)n(C)c1=O | 5.7 | 1.9
CN1CC(=O)N2C[C@@H](NC(=O)c3ccc4ncsc4c3)C[C@H]2C1=O | 6.6 | 4.6
O=C(c1n[nH]c2c1CCCC2)N1CCOCC1 | 8.3 | 4.4
COc1ccc(C2SCC(=O)N2CCc2ccc(OC)c(OC)c2)cc1 (configuration not stated) | -3.1 | -8.0
CCC(CC)n1ncc(C)c1NC(=O)C(=O)Nc1ccccc1Cl | 4.1 | 8.6
CN1CCN(C(=O)C2CCCN(C3CCN(C(=O)c4ccn[nH]4)CC3)C2)CC1 (configuration not stated) | -1.8 | -11.4
O=C1NCCc2ccc(S(=O)(=O)Oc3ccccc3C(F)(F)F)cc21 | 13.2 | 11.3
CCOC(=O)C1(Cc2ccc(OC)cc2)CCN(C(=O)CC2=CCCCC2)CC1 | -7.7 | -13.5
COc1ccc(F)c(CN2CCCC3(CCN(C(=O)c4cc(C)[nH]n4)C3)C2=O)c1 (configuration not stated) | 4.3 | 1.7
CCNC(=O)N(C)c1c(CC)nc2c(OCc3ccc(Cl)cc3)cccn12 | 3.3 | 0.9

Laid out differently: results already given.
Structure	NPYLR7 agonist	NPYLR7 agonist max-min
COc1ccc(F)c(CN2CCCC3(CCN(C(=O)c4cc(C)[nH]n4)C3)C2=O)c1 (configuration not stated)	4.3	1.7
Cn1c(=O)c2c(nc(Br)n2Cc2nnc(N)s2)n(C)c1=O	5.7	1.9
CCC(CC)n1ncc(C)c1NC(=O)C(=O)Nc1ccccc1Cl	4.1	8.6

Next part:
SMILES | NPYLR7 agonist | NPYLR7 agonist max-min
COc1ccc(S(=O)(=O)Nc2ccc(Nc3ccc(-n4cccn4)nn3)cc2)cc1 | -2.2 | -7.4
COc1ccc(C(=O)N2CCN(c3ncccc3C(=O)NCc3cccs3)CC2)cc1F | 23.1 | 13.4
CC(C(=O)Nc1ccccc1F)S(=O)CCOc1ccccc1Cl (configuration not stated) | 0.5 | -2.0
COc1cccc2cc(C(=O)Nc3cccc(Cl)c3)c(=O)oc12 | -3.1 | -8.7
O=C1NC2(CCCC2)N=C1c1ccc(Cl)cc1 | 14.1 | 5.8
CC(C)N1CCN(Cc2ccc(Sc3nncn3C)o2)CC1CCO (configuration not stated) | -1.1 | -3.7
O=C1CC(c2ccc(Cl)cc2)Cc2c1cnc1nc(N3CCCCC3)[nH]c(=O)c21 (configuration not stated) | 4.1 | 23.6
CC1=C(C(N)=O)C(c2ccco2)C(C#N)C(SCC(=O)N2CCc3ccccc3C2)=N1 (configuration not stated) | -0.6 | -1.0
Cc1ccc2c(c1)c(N=Nc1nc(C)cc(C)n1)c(O)n2C | -5.7 | -13.1
O=C1NCCCCC1Sc1nc2sc3c(c2c(=O)n1C1CCCC1)CCCC3 (configuration not stated) | -2.8 | -1.1
Cc1nc2c(C(=O)N(Cc3nccn3C)C3CC3)cccc2[nH]1 | 2.3 | 8.6
CN(Cc1ccc2c(c1)OCO2)C(=O)C1CCN(C2=NS(=O)(=O)c3ccccc32)CC1 | 12.2 | 7.7
CC1=NNc2nc3c(c(=O)n(Cc4ccc(C)cc4)c(=O)n3C)n2C1C (configuration not stated) | -7.7 | -10.1
C#CCOC(=O)N1CCC2(CC1)N=CC1(CCCCC1)S2 | 17.0 | 8.9
CSc1ccccc1NC(=O)CSc1ncnc2sc3c(c12)CCC3 | -4.7 | -9.0
CCN(CC)c1ccc(C(=O)N2CCc3sccc3C2)c(O)c1 | -3.5 | -2.9
CC(C)(C)c1cc2nc(-c3ccccc3F)cc(C(=O)NCCN3CCCC3)n2n1 | 10.4 | 16.3
Cc1nc2scc(C)n2c1C=NNc1ccccn1 | -5.5 | -13.6
COc1ccccc1-c1cc(C(=O)NC(C)C)n2nc(-c3ccccc3)cc2n1 | 6.7 | 13.1
Cc1ccc2oc(=O)n(CC(=O)N3CCC4(CCN(C)CC4)C3)c2c1 | 10.3 | 6.9
COCCNC(=O)Cn1nc2c(c1NC(=O)Cc1cccc3ccccc13)CSC2 | 2.8 | 8.6
CCOc1cc(/C=N\NC(=O)CSc2nc3ccccc3[nH]2)ccc1O | -1.3 | 2.6
COc1ccccc1-n1c(SCC(=O)NCC2CCCO2)nc2c([nH]c3ccccc32)c1=O (configuration not stated) | -6.8 | -5.2
CC(NC(=O)/C=C/c1cccc(F)c1)c1nnnn1-c1ccccc1 (configuration not stated) | 12.6 | 10.5
O=C(c1ccn(-c2ccccc2)n1)N1CCOc2cccc(F)c21 | 3.1 | 1.3
CCCCOc1ccc(S(=O)(=O)NCCOc2ccc(-c3ccccc3)nn2)cc1 | 2.9 | -0.4
CCCn1c(C)cn2c3c(=O)n(Cc4ccc(C)cc4)c(=O)n(C)c3nc12 | 11.7 | 2.6
O=c1cc(CNc2c(F)cccc2-n2cccn2)nc2ccccn12 | 8.0 | 2.8
CCCCc1nc(N2CCCN(C(=O)Cc3ccccc3)CC2)c2c(-c3ccccc3)noc2n1 | 14.0 | 10.3
CCCC(NC(=O)c1ccc(OC2CCN(C(C)=O)CC2)c(OC)c1)c1ccccc1 (configuration not stated) | 4.8 | 1.0
Cc1cc(=O)[nH]c(SCc2csc(-c3ccccc3)n2)n1 | -1.3 | -4.6
CCN1CCN(c2c(CN(CCOC)S(=O)(=O)c3ccc([N+](=O)[O-])cc3)c(C)nn2-c2ccccc2)CC1 | -1.6 | -0.9
Cc1noc(COC(=O)c2sc(C3CCCC3)nc2C)n1 | 7.8 | 7.2
CC(C)NC(=O)[C@@]1(OCc2ccccc2F)CC(OCc2ccc(C(F)(F)F)cc2)[C@@H]2OC(C)(C)O[C@@H]2C1 (some centres not stated) | -6.9 | 0.5
C=Cc1ccc(Cn2c(C)c(C(=O)NCc3ccccc3C(F)(F)F)sc2=O)cc1 | 1.0 | 0.3
CSc1ccc(NC(=O)C(c2cnn(C)c2)N2CCOCC2)cc1 (configuration not stated) | -3.3 | -6.9

Quoted from the listing.
CCN1CCN(c2c(CN(CCOC)S(=O)(=O)c3ccc([N+](=O)[O-])cc3)c(C)nn2-c2ccccc2)CC1 – NPYLR7 agonist max-min = -0.9
CC(C)NC(=O)[C@@]1(OCc2ccccc2F)CC(OCc2ccc(C(F)(F)F)cc2)[C@@H]2OC(C)(C)O[C@@H]2C1 (some centres not stated) – NPYLR7 agonist max-min = 0.5

Five compounds picked at random from those above, as already listed:
SMILES | NPYLR7 agonist | NPYLR7 agonist max-min
Cc1nc(N2CCN(C)CC2)ncc1C(=O)N[C@@H]1CC[C@@H](N)C1 | -2.6 | -7.2
Cn1c(=O)c2c(nc(Br)n2Cc2nnc(N)s2)n(C)c1=O | 5.7 | 1.9
COc1ccc(N2C(=O)C3C4C=CC(C4)C3C2=O)cc1Cl (configuration not stated) | -10.5 | -16.6
CC1=NC2=C(C(=O)CC(c3ccccc3)C2)C(c2ccc(F)cc2)C1C(=O)OCc1ccccc1 (configuration not stated) | 8.9 | 8.2
O=C1CC(c2ccc(Cl)cc2)Cc2c1cnc1nc(N3CCCCC3)[nH]c(=O)c21 (configuration not stated) | 4.1 | 23.6

Remaining list, next part.
SMILES | NPYLR7 agonist | NPYLR7 agonist max-min
FC(F)(F)c1cccc(-c2[nH]nc3nccc(-c4ccsc4)c23)c1 | 15.5 | 14.9
CCS(=O)(=O)c1oc(-c2ccc(F)cc2)nc1S(=O)(=O)c1ccc(Br)cc1 | 3.1 | -0.4
O=C(c1cc(=O)n(-c2ccccc2)[nH]1)N1CCCC(CCc2ccc(F)cc2)C1 (configuration not stated) | 14.9 | 10.9
Cc1ccc2c(c1)n([O-])c1c([n+]2=O)CCCC1 | 6.6 | -0.6

Not all compounds are listed (hit frequency here may not be typical).
